Bioassay records: PubChem, National Center for Advancing Translational Sciences (NCATS)
MARV entry inh = inhibitors of Marburg virus binding or cell entry; Potency, µM (highest dose often 37.8 µM), without a hit: at the top dose activity change, negative = inhibition, most hits filed as inhibitors; Marburg virus pseudotyped entry inhibition, cell reporter; control for the full effect not named in the record; about a third of the inactives were read at about 46 µM; AID 540276; hit rate 1.8% among 300,000; active = well fitted inhibition curve with a large enough effect; inconclusive = small, poorly fitted or top-dose-only effect, or effect the other way; inactive = flat fitted curve, though single readings scatter; tested in HEK293 cells; about a fifth of its hits are not listed in these tables; also: % is scaled to controls: 0 for no effect and ±100 for the full control effect; luciferase read-out
SARS PLpro yeast = SARS-CoV PLP inhibition in yeast; S. cerevisiae expressing SARS-CoV PLpro, growth rescue; control for the full effect not named in the record; Potency, µM (doses to about 32.9 µM), for the others: top-dose activity, positive = growth rescue; hit rate 0.19% among 330,000; also: 0% is about no effect; nearly all actives have a fitted effect of over 55% in size; growth read by luminescence after 48 h
Cruzain inh Det = cruzain (T. cruzi) inhibition with detergent. AID 1478. Potency, µM, inactives show max response, negative = inhibition, actives largely listed as inhibitors. hit rate 0.43% among 200,000. purified cruzain, Z-FR-AMC fluorescence, 0.01% Triton. P25779; active = well fitted curve in the direction sought with a large enough effect; inconclusive = small, poorly fitted or top-dose-only effect, or another doubt; inactive = no such curve, though single readings can be large; an effect the other way counts as inactive or inconclusive;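 also: plate controls were neutral wells for no effect and buffer without enzyme for full effect; nearly all actives have a fitted effect of over 40% in size; top concentration of the series not given in the record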
Target sequence (P25779 123-467 limits assumed): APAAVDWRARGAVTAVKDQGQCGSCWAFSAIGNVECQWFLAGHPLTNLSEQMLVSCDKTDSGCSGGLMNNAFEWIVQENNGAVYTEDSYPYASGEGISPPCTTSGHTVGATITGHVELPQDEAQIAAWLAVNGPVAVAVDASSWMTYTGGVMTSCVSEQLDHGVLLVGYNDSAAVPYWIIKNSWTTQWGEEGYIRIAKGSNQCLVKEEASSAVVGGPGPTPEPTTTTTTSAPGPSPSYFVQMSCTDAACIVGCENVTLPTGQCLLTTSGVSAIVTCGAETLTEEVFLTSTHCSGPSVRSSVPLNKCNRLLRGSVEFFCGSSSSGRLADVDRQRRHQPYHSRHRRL
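Read-out: AMC fluorescence (360 nm excitation, 450 nm emission), four reads over 2 min, first-to-third difference used. Conditions: cruzain 1.5 nM, Z-FR-AMC 2 uM, pH 5.5 acetate, 5 mM DTT, 0.01% Triton X-100.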
StopGo reporter = lowers the luciferase signal of an FMDV 2A StopGo reporter. human cells with a luciferase reporter of 2A StopGo recoding; control for the full effect not named in the record. Potency, µM (highest dose often 57.9 µM), inactives show at the top dose signal change, negative = less light. hit rate 1.2% among 410,000. AID 1159524; active = well fitted falling curve with a large enough effect; inconclusive = small, poorly fitted or top-dose-only effect; inactive = no such curve, though single readings can be large or run the other way; tested in HEK293T cells; also: % is scaled to controls: 0 for no effect and ±100 for the full control effect; nearly all actives have a fitted effect of over 45% in size; luciferase light after 4 h
NS1 inh = inhibitors of influenza NS1 protein function. S. cerevisiae slowed by influenza A NS1, growth recovery by OD600. Potency, µM (highest dose often 46.1 µM), without a hit: at the highest dose activity, positive = more growth. hit rate 0.4% among 270,000. AID 2326; also: actives are rising curves; nearly all actives have a fitted effect of over 50% in size
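Recovery from NS1-induced slow growth read by OD600 in budding yeast switched to galactose assay medium (pH 6.0, -URA) at 1:100 dilution. Compound 23 nl per well; the matching strain lacking NS1 serves as control.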
RE007 growth inh = less growth of the S. pombe RE007 Vpr strain; S. pombe RE007 Vpr strain, BacTiter-Glo ATP luminescence, 24 h; control for the full effect not named in the record; Potency, µM (top dose mostly 92.2 µM), for inactives: at the highest dose activity change, negative = less growth; hit rate 0.21% among 360,000; AID 651644; active = well fitted falling curve with a large enough effect; inconclusive = small, poorly fitted or top-dose-only effect; inactive = no such curve, though single readings can be large or run the other way;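 also: % is scaled to controls: 0 for no effect and ±100 for the full control effect; nearly all actives have a fitted effect of over 50% in size; the assay follows cell death caused by Vpr and the record does not say whether a fall means rescue or toxicity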
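Fission yeast strain RE007, carrying one chromosomally integrated HIV-1 vpr copy, was seeded at OD 0.01 in PMG+AL medium with 23 nL pinned compound. After 24 h at 30 °C and 99% humidity, viability was read by BacTiter-Glo luminescence.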
Cruzain inh noDet = inhibitors of Trypanosoma cruzi cruzain without detergent; P25779; purified cruzain, Z-FR-AMC fluorescence, no detergent; Potency, µM, for the others: max response, negative = inhibition, usual class: inhibitors; hit rate 2.3% among 200,000; AID 1476; active = well fitted curve in the direction sought with a large enough effect; inconclusive = small, poorly fitted or top-dose-only effect, or another doubt; inactive = no such curve, though single readings can be large; an effect the other way counts as inactive or inconclusive;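 also: plate controls were enzyme without inhibitor for no effect and buffer without enzyme for full effect; nearly all actives have a fitted effect of over 40% in size; top concentration of the series not given in the record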
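Detergent-free condition (0.00005% Triton X-100) in acetate buffer pH 5.5 with DTT. 1.5 nM enzyme and compound were pre-mixed 15 min, then 2 uM Z-FR-AMC substrate added; reaction progress from fluorescence change between first and third reads (60 s).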
LASV entry inh = blocks Lassa virus binding to or entry into cells. Lassa virus pseudotype entry inhibition, cell reporter; control for the full effect not named in the record. Potency, µM (series often up to 37.9 µM), for the others: at the highest dose activity change, negative = inhibition, most hits filed as inhibitors. hit rate 1.2% among 300,000; active means well fitted inhibition curve with a large enough effect; inconclusive means small, poorly fitted or top-dose-only effect, or effect the other way; inactive means flat fitted curve, though single readings scatter; tested in HEK293 cells; also: % is scaled to controls: 0 for no effect and ±100 for the full control effect; nearly all actives have a fitted effect of over 50% in size; luciferase read-out
Numbers without * were called inactive; ? = inconclusive; . = not tested or not shown; & = joins results of further samples; [ ] = another dose, or the depositor's remark. Unless noted, calls follow the shape of the dose curve; as a rule, active means well fitted rising curve with a large enough effect; inconclusive means small, poorly fitted or top-dose-only effect; inactive means no such curve, though single readings can be large or run the other way. Potency is read from the fitted curve at half-maximal effect.

molecule	MARV entry inh	SARS PLpro yeast	Cruzain inh Det	StopGo reporter	NS1 inh	RE007 growth inh	Cruzain inh noDet	LASV entry inh
COc1ccc(CCC(C)NC2CCCCCCC2)cc1 (stereo not given)	?	0%	.	-15%	9%	-8%	.	?
COc1ccc(Nc2c3c(nc4ccccc24)CCC3)cc1	8.9µM*	-2%	.	?	-4%	-9%	.	?
COc1ccc(CCNC(=O)c2ccc3c(c2)sc2nc(-c4ccccc4)cn23)cc1OC	.	.	-3.5%	-8%	.	.	2%	-7%[46.1 µM]
Cc1ccc(SCCN2CCC(C(C)(C)C)CCC2=O)cc1 (stereo not given)	.	15%	.	34%[activator]	-65%	-8%	.	.
O=S(=O)(c1cccc(NC(=S)N2CCN(c3ccccc3F)CC2)c1)C(F)F	0%	20%	-3.1%	2%	11%	26%	-4%	-15%
CCOc1ccc(-n2c(/C=C/c3cccc(F)c3)nc3cc(OC)c(OC)cc3c2=O)cc1	.	.	-0.8%	?	.	.	-2%	17%[46.1 µM]
COc1cc(/C=N/NC(=O)c2ccccn2)ccc1OC(=O)c1ccc(Br)cc1	13%	-2%	.	-8%	9%	-12%	.	-15%
O=C(CCCOc1ccccc1)OCn1nnc2ccccc2c1=O	2%	2%	.	-2%	0%	?	.	10%
CN(C(=O)c1ccc2c(=O)n3c(nc2c1)CCCCC3)c1cccc(Cl)c1	-36%[46.1 µM]	-2%	.	6%	8%	-13%	.	5%[46.1 µM]
O=C(Nc1ccc2oc(-c3ccc4ccccc4c3)nc2c1)c1ccc(Cl)c(Cl)c1	.	.	0.1%	8%	.	.	-3%	-12%[46.1 µM]
O=C(COc1ccccc1F)Nc1ccc(S(=O)(=O)Nc2nccs2)cc1	5%[46.1 µM]	11%	.	35%[activator]	4%	10%	.	-5%[46.1 µM]
Cn1c(=O)c2c(ncn2Cc2ccccc2)n(C)c1=O	.	1%	0.1%	-30%	-1%	4%	-2%	.
Cc1ccc(CN2CCC(=O)N2)cc1	.	1%	.	1%	7%	1%	.	.
CCc1ccc(-c2ccc(C(=O)Oc3ccc(Br)cc3)cc2)nc1	.	.	0.4%	5%	.	.	6%	6%[46.1 µM]
Cc1ccc(C)c2[nH]c(=O)c(CCNC(=O)c3ccc(S(=O)(=O)N(C)C)cc3)cc12	.	25%	-2.3%	-8%	-42%	-11%	?	.
O=C(CCc1nnc2ccc(NCc3ccco3)nn12)Nc1ccccc1F	.	-3%	.	6%	2%	-17%	.	.
CC(C)CC(COCc1cccc(C(F)(F)F)c1)N1CCN(C(=O)c2cccc(C(F)(F)F)c2)CCC1=O (stereo not given)	?	-3%	-8.3%	?	16%	0%	?	?
C/C(=N\NC(=O)C1CC1c1ccccc1)c1ccc(C)s1 (stereo not given)	-7%[46.1 µM]	4%	-0.5%	18%	11%	-6%	-2%	?
CC(CCc1ccccc1)NC(=O)c1cccnc1 (stereo not given)	15%	6%	-1.2%	-10%	-3%[9.22 µM]	9%	-5%	13%
Cc1nnsc1NC(=O)OCc1ccc(Cl)cc1Cl	2%	-15%	6.1%	0%	-89%	-6%	-3%	3%
Cn1cc(CC(=O)NCCCN2CCCC2)c2ccccc21	17%[46.1 µM]	1%	0.9%	1%	-5%	0%	-3%	-9%
CCOC(=O)Cc1csc(NC(=O)Cn2cnc3c2c(=O)n(C)c(=O)n3C)n1	2%[46.1 µM]	-2%	.	?	7%	6%	.	0%
N#Cc1c(/N=C/N2CCOCC2)sc2c1CCCCC2	8%	2%	-9.1%	9%	-26%	27%	-1%	0%
Cc1ccc(CC2SC(N)=NC2=O)cc1 (stereo not given)	.	0%	.	-4%	3%	-8%	.	.
O=C1C(c2ccccc2)c2ccccc2N1Cc1ccccc1 (stereo not given)	-20%[46.1 µM]	.	.	-16%	.	-17%	.	?
O=C(Nc1nc2c(s1)CN(Cc1ccccc1)CC2)C1CCCC1	-6%	-1%	.	13%	.	-5%	.	2%
COc1ccc(CCN2CC(C(=O)N(C)CC(=O)Nc3ccc(F)c(F)c3F)CC2=O)cc1OC (stereo not given)	?	.	.	2%	.	-5%	.	1%
O=C(c1cccs1)N1CCCC(N2CCN(c3cccc(C(F)(F)F)c3)CC2)C1 (stereo not given)	-19%	1%	.	?	-30%	16%	.	?
CC(C)Nc1nc(N)c(C(=O)C23CC4CC(CC(C4)C2)C3)s1	.	-1%	.	-11%	4%	15%	.	.
COc1ccc(Cl)cc1C(=O)NNC(=O)COC(=O)CCN=C1NS(=O)(=O)c2ccccc21	6%	-2%	.	-7%	.	0%	.	6%
COC(=O)c1ccc(NC(=O)CSc2nc3cc4ccccc4cc3[nH]2)cc1	?	.	-2.2%	16%	.	.	-6%	3%[46.1 µM]
COC(=O)c1ccccc1NC(=O)Cc1noc2ccc(C)cc12	.	.	-4.2%	-15%	.	.	2%	-11%[46.1 µM]
CC(C)(C)OC(=O)N1CCC(c2c(C(=O)NCc3ccco3)cnn2-c2ccc(F)cc2)CC1	.	.	-6.1%	-19%	.	.	?	-14%[46.1 µM]
O=C(Nc1ccc2c(c1)OCO2)c1cc(-c2ccc(Cl)cc2)on1	-6%[46.1 µM]	.	-3.8%	0%	.	.	9%	29%[46.1 µM]
NC(=O)NN=C1CCn2cccc21	-1%	.	.	-13%	.	1%	.	-10%[46.1 µM]
CCOC(=O)C1CCC(CNCc2ccc(Cl)cc2)CC1 (stereo not given)	?	4%	1.2%	-15%	-3%	1%	-8%	3%
CCCCn1nnc(NC(=O)CCC)n1	17%	5%[6.58 µM]	0.6%	-6%	2%	-9%	9%	-3%
CCOC(=O)c1ccc(NC(=O)c2ccc(CN3CCc4ccccc4C3)cc2)cc1	?	1%	.	?	-2%	-3%	.	-23%
O=C(COc1ccc(S(=O)(=O)N2CCCC2)cc1Cl)NCc1ccco1	-9%	0%	1.9%	-3%	-10%	9%	-5%	-16%
Cc1c(NC(=O)c2ccc(NC(=O)C3CC3)cc2)cccc1C(=O)O	-13%[46.1 µM]	2%	.	?	5%	0%	.	-19%[46.1 µM]
O=C(CSc1nc2ccccc2c(=O)n1-c1ccc(F)cc1)Nc1cc(S(=O)(=O)N2CCOCC2)ccc1Cl	-2%&-8%	5%	-0.9%	-16%	13µM*	5%	?	?
O=c1c2c(nc3nc(NCc4cccc5ccccc45)[nH]n13)CCC2	-8%[46.1 µM]	1%	.	-10%	.	29%	.	1%
CCN(C(=O)Cn1c(C(=O)OC)cc2sccc21)c1cccc(C)c1	-16%[46.1 µM]	.	-5.8%	-16%	.	.	-9%	.
COc1ccc(CC(=O)NNC(=O)c2ccc(Br)o2)cc1	0%[46.1 µM]	5%	.	20%	16%	-4%	.	12%[46.1 µM]
Cc1ccc2[nH]c(=O)c(CN(CCCO)S(=O)(=O)c3cccc4nsnc34)cc2c1	-28%	2%	-6.6%	.	-5%	5%	7%	13%
O=C1NC(=S)N/C1=C/C=C/c1ccccc1	4%[46.1 µM]	0%	.	23%	.	-1%	.	-3%[46.1 µM]
O=C(NCCN1CCOCC1)Nc1ccc(Cl)cc1	21%	-1%	-12%	0%	5%	4%	-24%	19%
Cc1ccc(N2CCN(S(=O)(=O)c3ccc4oc(=O)ccc4c3)CC2)cc1Cl	?	-3%	.	-5%	5%	-11%	.	.
COc1ccc(CCNC(=O)/C(C#N)=C2\N=C(NC(=O)c3ccco3)c3ccccc32)cc1	-5%[46.1 µM]	1%	.	?	-3%	9%	.	-6%[46.1 µM]
C=CCn1c(Cc2cccs2)nnc1SCC(=O)c1ccc(F)cc1	-17%	-3%	0.9%	51%[activator]	-10%	-2%	2%	7%

Going on with the list:
molecule	MARV entry inh	SARS PLpro yeast	Cruzain inh Det	StopGo reporter	NS1 inh	RE007 growth inh	Cruzain inh noDet	LASV entry inh
COCC(C)NC(=O)c1cc(OC)cc(OC)c1 (stereo not given)	-1%[46.1 µM]	0%	.	-4%	2%	3%	.	-6%[46.1 µM]
CC(C)c1ccccc1OCC(O)CN(CC(O)COc1cccc2ccccc12)C(C)C (stereo not given)	?	-14%	.	-21%	-15%	-8%	.	?
CC(C)(CO)NC(=O)c1ccc2c(c1)C(=O)c1ccccc1-2	?	3%	.	29%	-3%	11%	.	-13%[46.1 µM]
CC(C)c1ccccc1NC(=S)NC1CCN(Cc2ccccc2)CC1	?	-28%	-1.1%	-30%	-2%	-4%	-3%	-37%
N#Cc1c(N)n(C2CCCCC2)c2nc3ccccc3nc12	?	-1%	-28%	-18%	-1%	2%	5%	?
Cc1ccnc(N2CCN(C(=O)CSc3nc4ccccc4nc3N3CCCCC3)CC2)c1	-2%&-6%	-10%	3.9%	-19%	-82%	12%	-2%	-4%
S=c1nc[nH]c2c1ncn2-c1ccc(Cl)cc1	2%	.	.	19%	.	-8%	.	?
COc1ccc(CC(=O)Nc2ccc(N(C)C)c3ccccc23)cc1	0%	9%	.	2%	11%	0%	.	-19%
COC(=O)C1CCN(C(=O)Nc2ccc(OC)cc2)CC1	5%	-3%	8.9%	-2%	-1%	0%	-5%	3%
Cc1ccc(S(=O)(=O)N2CCCN(S(=O)(=O)C3CCS(=O)(=O)C3)CC2)cc1 (stereo not given)	0%	-1%	2.4%	-16%	-6%	7%	12%	2%
O=C(N/C(=C\c1ccccc1)C(=O)N1CCOCC1)c1ccc(Br)o1	?	10%	.	52%[activator]	-11%	3%	.	-7%[46.1 µM]
Cc1ccc(S(=O)(=O)N/N=C\c2ccc3c(c2)OCO3)cc1C	14%[46.1 µM]	-3%	.	57%[activator]	-24%	2%	.	?
Cc1ccsc1C(=O)OCC(=O)Nc1cccc(S(=O)(=O)NC2=NCCCCC2)c1	2%	1%	.	2%	.	4%	.	-22%
